SARS PLpro yeast – qHTS of Yeast-based Assay for SARS-CoV PLP | S. cerevisiae expressing SARS-CoV PLpro, growth rescue; control for the full effect not named in the record | Potency, µM (doses to about 32.9 µM), without a hit: at the top dose activity, positive = growth rescue | actives 0.19% (n = 330,000) | AID 485353, 2010; active means well fitted rising curve with a large enough effect; inconclusive means small, poorly fitted or top-dose-only effect; inactive means no such curve, though single readings can be large or run the other way; further: 0% is about no effect; nearly all actives have a fitted effect of over 55% in size; growth read by luminescence after 48 h
StopGo reporter – High Throughput Screening for Foot and Mouth Disease Virus Antivirals; actives 1.2% (n = 410,000); human cells with a luciferase reporter of 2A StopGo recoding; control for the full effect not named in the record; Potency, µM (top dose mostly 57.9 µM), for inactives: at the highest dose signal change, negative = less light; active = well fitted falling curve with a large enough effect; inconclusive = small, poorly fitted or top-dose-only effect; inactive = no such curve, though single readings can be large or run the other way; tested in HEK293T cells; further: on the % scale 0 is the no-effect control and ±100 the full control effect; nearly all actives have a fitted effect of over 45% in size; luciferase light after 4 h
NS1 inh – qHTS Assay for Inhibitors of Influenza NS1 Protein Function; S. cerevisiae slowed by influenza A NS1, growth recovery by OD600; Potency, µM (highest dose often 46.1 µM), without a hit: at the highest dose activity, positive = more growth; actives 0.4% (n = 270,000); AID 2326, 2010; active means well fitted rising curve with a large enough effect; inconclusive means small, poorly fitted or top-dose-only effect; inactive means no such curve, though single readings can be large or run the other way; further: nearly all actives have a fitted effect of over 50% in size
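A cell-based growth assay was used: compounds that relieve NS1-induced slow growth of budding yeast raise OD600. Assay medium was yeast nitrogen base with ammonium sulphate and -URA supplement, pH 6.0, with 2% galactose.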
MARV entry inh – qHTS for inhibitors of binding or entry into cells for Marburg Virus | Potency, µM (doses to about 37.8 µM), for inactives: at the highest dose activity change, negative = inhibition, most hits filed as inhibitors | AID 540276, 2011 | Marburg virus pseudotyped entry inhibition, cell reporter; control for the full effect not named in the record; about a third of the inactives were read at about 46 µM | actives 1.8% (n = 300,000); active = well fitted inhibition curve with a large enough effect; inconclusive = small, poorly fitted or top-dose-only effect, or effect the other way; inactive = flat fitted curve, though single readings scatter; tested in HEK293 cells; about a fifth of its hits are not listed in these tables; further: on the % scale 0 is the no-effect control and ±100 the full control effect; luciferase read-out
Lassa entry inh – qHTS for Inhibitors of binding or entry into cells for Lassa Virus; Lassa virus pseudotype entry inhibition, cell reporter; control for the full effect not named in the record; Potency, µM (top dose mostly 37.9 µM), for the others: at the top dose activity change, negative = inhibition, usual class: inhibitors; actives 1.2% (n = 300,000); AID 540256, 2011; active means well fitted inhibition curve with a large enough effect; inconclusive means small, poorly fitted or top-dose-only effect, or effect the other way; inactive means flat fitted curve, though single readings scatter; tested in HEK293 cells; further: on the % scale 0 is the no-effect control and ±100 the full control effect; nearly all actives have a fitted effect of over 50% in size; luciferase read-out
RE007 growth inh – qHTS Assay for Inhibitors of the HIV-1 protein Vpr; AID 651644, 2012; Potency, µM (highest dose often 92.2 µM), for the others: top-dose activity change, negative = less growth; actives 0.21% (n = 360,000); S. pombe RE007 Vpr strain, BacTiter-Glo ATP luminescence, 24 h; control for the full effect not named in the record; active = well fitted falling curve with a large enough effect; inconclusive = small, poorly fitted or top-dose-only effect; inactive = no such curve, though single readings can be large or run the other way;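 further: on the % scale 0 is the no-effect control and ±100 the full control effect; nearly all actives have a fitted effect of over 50% in size; the assay follows cell death caused by Vpr and the record does not say whether a fall means rescue or toxicity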
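Fission yeast RE007 carrying one integrated HIV-1 vpr copy, seeded at OD 0.01 in PMG+AL medium with 23 nL pinned compound. Grown 24 h at 30 degrees; viability read by BacTiter-Glo luminescence after 5 min.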
Cruzain Triton – qHTS Assay for Promiscuous and Specific Inhibitors of Cruzain (with detergent); actives 0.43% (n = 200,000); Cruzipain (Trypanosoma cruzi), P25779; AID 1478, 2009; purified cruzain, Z-FR-AMC fluorescence, 0.01% Triton; Potency, µM, inactives show max response, negative = inhibition, actives largely listed as inhibitors;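 further: plate controls were neutral wells for no effect and buffer without enzyme for full effect; nearly all actives have a fitted effect of over 40% in size; top concentration of the series not given in the record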
Target sequence (P25779 123-467 limits assumed): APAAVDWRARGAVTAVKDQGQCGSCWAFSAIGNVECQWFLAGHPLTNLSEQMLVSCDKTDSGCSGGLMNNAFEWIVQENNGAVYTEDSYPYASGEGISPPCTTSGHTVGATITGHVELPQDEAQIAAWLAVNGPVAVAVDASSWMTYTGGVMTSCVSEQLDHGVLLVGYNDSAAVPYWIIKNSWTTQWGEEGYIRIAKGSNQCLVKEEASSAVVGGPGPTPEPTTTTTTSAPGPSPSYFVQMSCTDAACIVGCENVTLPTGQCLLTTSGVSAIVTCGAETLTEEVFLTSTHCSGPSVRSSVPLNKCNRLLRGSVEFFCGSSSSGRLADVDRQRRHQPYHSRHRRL
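Steps: dispense cruzain (1.5 nM final) in acetate buffer pH 5.5 with DTT and 0.01% Triton X-100; pin-transfer compounds; incubate 15 min RT; add Z-FR-AMC (2 uM final); read fluorescence every 30 s, using the 60 s intensity change.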
Cruzain noTriton – qHTS Assay for Promiscuous and Specific Inhibitors of Cruzain (without detergent); purified cruzain, Z-FR-AMC fluorescence, no detergent; Potency, µM, for the others: max response, negative = inhibition, hits mostly inhibitors; actives 2.3% (n = 200,000);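 further: plate controls were enzyme without inhibitor for no effect and buffer without enzyme for full effect; nearly all actives have a fitted effect of over 40% in size; top concentration of the series not given in the record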
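Detergent-free condition (0.00005% Triton X-100) in acetate buffer pH 5.5 with DTT. 1.5 nM enzyme and compound were pre-mixed 15 min, then 2 uM Z-FR-AMC substrate added; reaction progress from fluorescence change between first and third reads (60 s).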
* marks the source's active call; other numbers are inactive results; ? = inconclusive; / = no result given; [ ] = dose if it differs, or a comment. Unless noted, the call rests on the fitted dose curve; in most records, active means well fitted curve in the direction sought with a large enough effect; inconclusive means small, poorly fitted or top-dose-only effect, or another doubt; inactive means no such curve, though single readings can be large; an effect the other way counts as inactive or inconclusive. Potency means the concentration at half of the fitted maximal effect.

structure	SARS PLpro yeast	StopGo reporter	NS1 inh	MARV entry inh	Lassa entry inh	RE007 growth inh	Cruzain Triton	Cruzain noTriton
O=C(N/N=C\C=C\c1ccc2c(c1)OCO2)C1COc2cc3ccccc3cc2O1 (configuration not stated)	-4.2%	?	7.8%	-14.9%	?	-6.1%	-7.2%	25.1µM*
O=C(NCCN1CCCCC1)c1ccc(F)cc1Cl	5.2%	0.1%	17.5%	/	/	1.5%	/	/
COc1ccc(NC(=O)CN(c2ccc(OC)cc2)S(=O)(=O)c2ccc(OC)c(OC)c2)cc1	-8.3%	-27.7%	8.5%	/	/	17.7%	/	/
CC(OC(=O)CCCN=C1NS(=O)(=O)c2ccccc21)C(=O)Nc1ccc(F)cc1Cl (configuration not stated)	0.4%	-3.4%	/	?	-4.2%	0.4%	/	/
COc1ccc(CNC(=O)CCn2cccn2)cc1	/	-19.2%	/	/	-13.6%[46.1 µM]	/	0.4%	-0.9%
COc1ccccc1S(=O)(=O)Cc1ccc(C(=O)NCc2ccco2)o1	1.2%	-7.9%	-2.5%	0.9%[46.1 µM]	-9.6%[46.1 µM]	6.8%	/	/
COc1ccc(S(=O)(=O)Nc2cc(C(=O)NC(C)C)ccc2N2CCOCC2)cc1	7.1%	/	-51.6%	-29.6%	-26.4%	1.9%	3.1%	2.8%
Cc1ccc(S(=O)(=O)c2cc3c(=O)n4cccc(C)c4nc3n(CC3CCCO3)c2=N)cc1C (configuration not stated)	1.0%	-3.3%	-2.0%	?	6.8%[46.1 µM]	-10.2%	/	/
C/C(=N\Nc1cc(C(F)(F)F)ccc1Cl)c1ccncc1	-4.7%	-22.1%	-3.9%	-1.5%[46.1 µM]	/	-27.7%	/	/
CCCc1cnc(N2CCN(C(=O)c3ccc(F)cc3)CC2)nc1	1.2%	?	2.1%	/	/	-15.9%	/	/
Cc1cc(NC(=O)c2cccnc2Cl)ccc1NC(=O)c1cc2ccccc2o1	2.1%	-21.4%	-5.6%	-14.1%[46.1 µM]	/	0.1%	/	/
CCc1cccc2c(N=O)c(O)[nH]c12	21.2%	-23.8%	3.4%	29.3%	-3.7%	-8.9%	2.6%	-4.2%
CC1CCc2c(cc(-c3ccccc3)n2-c2ccc(C(=O)NC(C)C)cc2)C1 (configuration not stated)	/	-26.8%	/	/	?	/	-1.0%	6.4%
C=CCOc1ccc(CN(C)CC(O)COc2cccc3ccccc23)cc1 (configuration not stated)	-13.7%	-26.5%	-5.1%	?	?	-9.7%	/	/
Cc1cc(C(=O)OCC(=O)c2ccc(Br)s2)c(C)o1	-8.1%	/	-14.6%	-1.5%	/	/	-4.3%	2.0%
Cn1c(=O)c2c(ncn2CC(=O)N2CCN(S(=O)(=O)c3ccc(Cl)cc3)CC2)n(C)c1=O	0.2%	-13.5%	4.0%	/	/	-1.5%	/	/
COc1ccc(N(CC(=O)NCCSC2CCCCC2)S(=O)(=O)c2ccc(C)cc2)cc1	5.0%	-27.1%	10.9%	-10.8%	-20.1%	2.3%	/	/
Cc1ccc(NC(=O)CN2C(=O)C3CCCCN3C(=O)c3ccccc32)cc1 (configuration not stated)	/	-13.0%	3.7%	9.0%	1.6%	-10.5%	10.9%	2.0%
C=CCOC(=O)c1[nH]c2c(c1C)C(=O)CC(c1cc(OC)c(OC)c(OC)c1)C2 (configuration not stated)	3.7%	11.2µM*	-2.5%	?	?	-2.3%	-1.1%	-3.2%
O=C(NCCc1ccccc1)c1ccc2c(c1)CCN2S(=O)(=O)c1ccc(Cl)cc1	/	-22.5%	/	?	?	/	0.1%	16.4%
CCOc1ccc(-n2c(SCC(=O)NCC3CCCO3)nc3c([nH]c4ccccc43)c2=O)cc1 (configuration not stated)	/	-14.8%	/	/	-21.2%[46.1 µM]	/	-1.8%	6.1%
COc1ccc(C(=O)N/N=C(\C)Cn2nc([N+](=O)[O-])cc2C)cc1	-8.5%	1.9%	3.2%	?	-1.3%	-6.6%	6.4%	-2.8%
O=C(COC(=O)c1ccccc1Br)NCC1CCCCC1	-7.8%	73.3%[activator]	/	4.8%	25.5%	22.7%	/	/
c1csc(CCCN2CCCCC2)c1	/	-11.6%	/	-0.9%	9.2%	15.2%	/	/
Cc1ccn2cc(C(=O)Nc3nnc(C)s3)nc2c1	10.9%	/	-3.6%	?	?	16.0%	2.5%	3.8%
Cc1cc2ccccn2c1C(=O)c1ccc(C#N)cc1	13.4%	?	-4.6%	-6.6%[46.1 µM]	?	7.0%	/	/
Cc1ccc(C2CC(C(F)(F)F)n3ncc(C(N)=O)c3N2)cc1 (configuration not stated)	-9.9%	-10.2%	-0.8%	-21.4%	-1.3%	16.9%	1.9%	-13.1%
COc1ccc(COC(=O)C2=C(C)NC(=O)NC2c2cc(OC)ccc2OC)cc1 (configuration not stated)	-4.3%	-16.0%	10.1%	/	/	9.1%	/	/
CCCCCc1nnc(NC(=O)c2ccc(=O)n(C)n2)s1	2.9%	7.8%	/	18.2%[46.1 µM]	7.3%	13.9%	/	/
COc1ccccc1-c1nnc2n1N=C(c1ccc(O)c(O)c1)CS2	1.2%	-13.0%	-1.0%	?	-29.0%	15.3%	-4.0%	-9.9%
C=CCONC(=O)c1cc(OCC(F)(F)F)ccc1OCC(F)(F)F	2.1%	5.2%	8.4%	-8.2%	2.3%	1.0%	4.6%	1.0%
O=C(C[n+]1ccccc1)N/N=C/c1ccc(F)cc1	-1.7%	-4.9%	4.3%	-3.3%[46.1 µM]	3.2%	22.6%	/	/
Cc1ccc(Cl)cc1N1CCN(C(=O)C2CCN(Cc3nc(-c4ccc(Cl)cc4)oc3C)CC2)CC1	/	?	/	10.4%[46.1 µM]	?	/	-0.8%	-7.0%
CC(=O)N1c2ccc(S(=O)(=O)N3CCC(C(=O)Nc4cccc(C)c4)CC3)cc2CC1C (configuration not stated)	-0.8%	?	7.0%	?	?	0.8%	/	/
Cc1ccc(C(=O)Oc2ccc(-c3nnco3)cc2)o1	3.1%	-0.4%	/	5.3%[46.1 µM]	15.9%	5.0%	/	/
CN(c1ccc(C(=O)Nc2ccc(F)cc2F)cc1)S(=O)(=O)c1ccccc1	-4.8%	?	-20.2%	-26.6%	11.2µM*	8.1%	/	/
CCc1nnc(NS(=O)(=O)c2ccc(NC(=S)NC(=O)c3ccncc3)cc2)s1	1.8%	-9.2%	14.9%	/	/	-7.7%	/	/
Cc1cccc(NC(=O)CN2C(=O)S/C(=C\c3ccccn3)C2=O)c1	0.6%	-14.0%	0.1%	/	/	17.2%	/	/
Cc1ccccc1CNC(=O)Cn1cc2c(n1)-c1c(oc(C(=O)N3CCCC3)c1C)CC2	/	10.6%	/	/	?	/	-5.6%	12.4%
CCSc1nc(=S)n(-c2ccccc2)c(C)c1C(C)=O	3.6%	-6.3%	-10.1%	-2.9%	-1.3%	13.2%	-3.7%	-5.5%
O=C(COC(=O)CNC(=O)c1ccc(Cl)c([N+](=O)[O-])c1)NC(=O)CN1CCCC1=O	1.3%	-25.0%	/	-0.3%	-18.7%	-5.1%	/	/
COC(=O)c1cccc(COC(=O)c2ccc(N(C)C)cc2)c1	-8.7%	33.2%[activator]	1.0%	-8.6%	3.5%	17.7%	-9.0%	-12.8%
CCCNC(=O)c1cnn(-c2ccc(C)c(C)c2)c1C1CCN(C(=O)OC(C)(C)C)CC1	/	-5.7%	/	/	?	/	-3.3%	?
Cc1cc(/C=C2\C(=O)NC(=O)N(c3cccc(F)c3)C2=O)c(C)n1-c1ccc(C(=O)O)c(Cl)c1	4.9%	7.7%	11.9%	/	/	-6.6%	/	/
Cn1cc(C(=O)N2CCCC(Nc3ccc(F)cc3)C2)c2ccccc21 (configuration not stated)	-5.2%	-13.0%	-2.8%	/	/	1.4%	/	/
Cc1nc(CNS(=O)(=O)c2cc(C)c(C)cc2C)cs1	-5.9%	36.2%[activator]	?	12.9%	8.1%	9.9%	11.7%	1.1%
COc1ccc(/C=N/n2cnc3c([nH]c4ccc(F)cc43)c2=O)cc1CSc1ccccn1	2.4%	-7.3%	-0.8%	?	2.6%	0.9%	/	/
Cc1cccc(C)c1-n1c(C)cc(/C=N/NC(N)=S)c1C	10µM*	?	-48.3%	?	?	-10.8%	-16.3%	?
Cc1nnc(SCc2nc3scc(-c4ccccc4)c3c(=O)[nH]2)s1	0.4%	?	-1.6%	/	/	5.9%	/	/
COc1cc(OC)cc(C(=O)N2CCN(C(=O)COc3ccc(C)cc3)CC2)c1	/	3.6%	/	-7.4%[46.1 µM]	8.7%[46.1 µM]	/	-3.5%	-0.8%

Next records follow:
structure	SARS PLpro yeast	StopGo reporter	NS1 inh	MARV entry inh	Lassa entry inh	RE007 growth inh	Cruzain Triton	Cruzain noTriton
O=c1c2ccccc2ncn1-c1cccc(Cl)c1	?	8.5%	6.2%	?	1.7%	-13.6%	-2.9%	2.1%
Cc1ccccc1-n1nc(C)c2c1N=C1C(Cl)=CC(Cl)=CN1C2c1ccc(C(=O)O)cc1 (configuration not stated)	2.0%	0.0%	?	-11.8%	-3.2%	-12.0%	-9.3%	?
O=C(COc1ccccc1)Nc1ccc2[nH]c(=O)[nH]c2c1	0.9%	18.0%	0.4%	/	/	-6.5%	/	/
O=C(Cc1ccc([N+](=O)[O-])cc1)c1ccc(O)cc1O	-0.4%	23.5%	-58.1%	/	/	1.8%	/	/
COc1cc(NC(=S)NNC(=O)C(C)(C)O)cc(OC)c1	1.1%	-11.4%	1.8%	/	/	1.3%	/	/
CN(CC(=O)Nc1cccc2c1CCCC2)S(=O)(=O)c1ccc(Cl)cc1	?	-20.2%	3.4%	-7.7%	-18.8%	8.3%	0.0%	5.3%

Assay outcomes: PubChem, National Center for Advancing Translational Sciences (NCATS)
